Assay outcomes as filed in PubChem.
RE007 growth inh: less growth of the S. pombe RE007 Vpr strain; S. pombe RE007 Vpr strain, BacTiter-Glo ATP luminescence, 24 h; control for the full effect not named in the record; Potency, µM (series often up to 92.2 µM), inactives show at the top dose activity change, negative = less growth; actives 0.21% (n = 360,000); AID 651644; active = well fitted falling curve with a large enough effect; inconclusive = small, poorly fitted or top-dose-only effect; inactive = no such curve, though single readings can be large or run the other way;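 further: on the % scale 0 is the no-effect control and ±100 the full control effect; nearly all actives have a fitted effect of over 50% in size; the assay follows cell death caused by Vpr and the record does not say whether a fall means rescue or toxicity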
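Fission yeast strain RE007, carrying one chromosomally integrated HIV-1 vpr copy, was seeded at OD 0.01 in PMG+AL medium with 23 nL pinned compound. After 24 h at 30 °C and 99% humidity, viability was read by BacTiter-Glo luminescence.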
SARS PLpro yeast: blocks SARS-CoV papain-like protease in a yeast assay; Potency, µM (titrated, usually from 32.9 µM), inactives show top-dose activity, positive = growth rescue; S. cerevisiae expressing SARS-CoV PLpro, growth rescue; control for the full effect not named in the record; actives 0.19% (n = 330,000); AID 485353; further: 0% is about no effect; nearly all actives have a fitted effect of over 55% in size; growth read by luminescence after 48 h
Cruzain inh Det: cruzain (T. cruzi) inhibition with detergent | purified cruzain, Z-FR-AMC fluorescence, 0.01% Triton | Potency, µM, for inactives: max response, negative = inhibition, most hits filed as inhibitors | actives 0.43% (n = 200,000) | AID 1478; active means well fitted curve in the direction sought with a large enough effect; inconclusive means small, poorly fitted or top-dose-only effect, or another doubt; inactive means no such curve, though single readings can be large; an effect the other way counts as inactive or inconclusive;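 further: plate controls were neutral wells for no effect and buffer without enzyme for full effect; nearly all actives have a fitted effect of over 40% in size; top concentration of the series not given in the record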
Target sequence (P25779 123-467 limits assumed): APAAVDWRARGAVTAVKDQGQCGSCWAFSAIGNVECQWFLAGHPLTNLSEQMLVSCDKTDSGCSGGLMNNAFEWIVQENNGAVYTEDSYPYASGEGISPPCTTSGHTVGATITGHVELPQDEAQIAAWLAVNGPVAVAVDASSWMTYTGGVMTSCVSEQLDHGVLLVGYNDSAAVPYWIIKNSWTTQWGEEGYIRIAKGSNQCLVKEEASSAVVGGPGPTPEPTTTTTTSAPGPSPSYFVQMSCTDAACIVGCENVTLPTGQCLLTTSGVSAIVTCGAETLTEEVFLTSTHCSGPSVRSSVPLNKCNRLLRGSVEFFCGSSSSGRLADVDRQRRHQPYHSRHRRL
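Read-out: AMC fluorescence (360 nm excitation, 450 nm emission), four reads over 2 min, first-to-third difference used. Conditions: cruzain 1.5 nM, Z-FR-AMC 2 uM, pH 5.5 acetate, 5 mM DTT, 0.01% Triton X-100.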
NS1 inh: blocks influenza NS1 protein function | AID 2326 | S. cerevisiae slowed by influenza A NS1, growth recovery by OD600 | Potency, µM (highest dose often 46.1 µM), for inactives: top-dose activity, positive = more growth | actives 0.4% (n = 270,000); further: actives are rising curves; nearly all actives have a fitted effect of over 50% in size
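Compounds were scored for reversing the slow growth caused by influenza A NS1 in S. cerevisiae, measured by optical density at 600 nm. Assay medium contained 2% galactose at pH 6.0; NS1-free yeast of the same strain were the positive control.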
LASV entry inh: inhibitors of Lassa virus binding or cell entry; Lassa virus pseudotype entry inhibition, cell reporter; control for the full effect not named in the record; Potency, µM (titrated, usually from 37.9 µM), for the others: at the highest dose activity change, negative = inhibition, usual class: inhibitors; actives 1.2% (n = 300,000); AID 540256; active means well fitted inhibition curve with a large enough effect; inconclusive means small, poorly fitted or top-dose-only effect, or effect the other way; inactive means flat fitted curve, though single readings scatter; tested in HEK293 cells; further: on the % scale 0 is the no-effect control and ±100 the full control effect; nearly all actives have a fitted effect of over 50% in size; luciferase read-out
2A StopGo: FMDV 2A StopGo reporter, luciferase signal | human cells with a luciferase reporter of 2A StopGo recoding; control for the full effect not named in the record | Potency, µM (titrated, usually from 57.9 µM), inactives show at the highest dose signal change, negative = less light | actives 1.2% (n = 410,000) | AID 1159524; active = well fitted falling curve with a large enough effect; inconclusive = small, poorly fitted or top-dose-only effect; inactive = no such curve, though single readings can be large or run the other way; tested in HEK293T cells; further: on the % scale 0 is the no-effect control and ±100 the full control effect; nearly all actives have a fitted effect of over 45% in size; luciferase light after 4 h
Cruzain inh noDet: cruzain (T. cruzi) inhibition without detergent | Potency, µM, for inactives: max response, negative = inhibition, most hits filed as inhibitors | purified cruzain, Z-FR-AMC fluorescence, no detergent | actives 2.3% (n = 200,000) | AID 1476 | P25779; active means well fitted curve in the direction sought with a large enough effect; inconclusive means small, poorly fitted or top-dose-only effect, or another doubt; inactive means no such curve, though single readings can be large; an effect the other way counts as inactive or inconclusive;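 further: plate controls were enzyme without inhibitor for no effect and buffer without enzyme for full effect; nearly all actives have a fitted effect of over 40% in size; top concentration of the series not given in the record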
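Purified cruzain at 1.5 nM, pre-incubated 15 min with compound at room temperature in 100 mM sodium acetate pH 5.5, 5 mM DTT, 0.00005% Triton X-100. Reaction started with 2 uM Z-FR-AMC; AMC fluorescence increase over 60 s gives rate.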
Marburg entry inh: blocks Marburg virus binding to or entry into cells. actives 1.8% (n = 300,000). Potency, µM (highest dose often 37.8 µM), without a hit: at the highest dose activity change, negative = inhibition, usual class: inhibitors. Marburg virus pseudotyped entry inhibition, cell reporter; control for the full effect not named in the record; about a third of the inactives were read at about 46 µM; active = well fitted inhibition curve with a large enough effect; inconclusive = small, poorly fitted or top-dose-only effect, or effect the other way; inactive = flat fitted curve, though single readings scatter; tested in HEK293 cells; about a fifth of its hits are not listed in these tables; further: on the % scale 0 is the no-effect control and ±100 the full control effect; luciferase read-out
* marks the source's active call; other numbers are inactive results; ? = inconclusive; nt = no result given; [ ] = dose if it differs, or a comment. Unless noted, the call rests on the fitted dose curve; in most records, active means well fitted rising curve with a large enough effect; inconclusive means small, poorly fitted or top-dose-only effect; inactive means no such curve, though single readings can be large or run the other way. Potency means the concentration at half of the fitted maximal effect. Rows are unselected; 4.7% or so of the library scored in one or more.

SMILES	RE007 growth inh	SARS PLpro yeast	Cruzain inh Det	NS1 inh	LASV entry inh	2A StopGo	Cruzain inh noDet	Marburg entry inh
O=C(NC1CCCC1)c1cc(-c2ccccc2)on1	-12%	-8%	nt	-11%	?	30%[activator]	nt	?
O=C(O)CCNC(=O)c1cncc(Br)c1	-9%	-3%	10%	5%	?	nt	-1%	-20%
Cc1ccn2c(Nc3ccccc3)c(-c3c[nH]c4ccccc34)nc2c1	nt	nt	-17%	nt	-5%[46.1 µM]	23%	13µM*	-17%[46.1 µM]
O=C(COc1ccc(Cl)cc1)OCC(=O)N1CCCc2ccccc21	-16%	2%	-4.3%	-39%	3%	-13%	-3%	6%
C=C1CCC[C@]2(C)C[C@H]3OC(=O)C(CNCC(OC)OC)[C@H]3CC12 (stereo not given in full)	3%	-1%	nt	-3%	20%[46.1 µM]	-12%	nt	4%[46.1 µM]
O=C(Nc1cccc2c1CCCC2)c1cccc(F)c1	7%	-11%	nt	-38%	-5%	-8%	nt	-5%
O=C(Nc1nnc(-c2ccc(Br)cc2)o1)c1ccco1	-29%	4%	nt	nt	-11%	6%	nt	?
COc1cc(/C(C)=N/NC(=O)CSc2nnc(C)s2)ccc1O	25%	1%	nt	4%	4%	-27%	nt	1%[46.1 µM]
CCOC(=O)c1c(C)[nH]c(=S)c(C#N)c1-c1ccc(Cl)cc1	7%	26%	-3.4%	?	-18%	-1%	-8%	6%
Cc1ccc(NC(=O)N(Cc2ccco2)C(C)c2ccco2)cc1C (stereo not given)	1%	-28%	-6.3%	-61%	-28%	7%	-6%	-2%
CCN1CCN(C(=O)c2ccc(N3CC4CC(C3)c3cccc(=O)n3C4)c([N+](=O)[O-])c2)CC1 (stereo not given)	0%	1%	nt	nt	-4%	10%	nt	nt
O=C(O)COc1ccc2c(c1)CCCC2	3%	-2%	-0.5%	4%	10%	2%	2%	8%
CCOc1ccc(CCNC(=O)c2cnc3sc(N4CCOCC4)nn3c2=O)cc1	nt	nt	-1.3%	nt	-2%[46.1 µM]	-16%	-9%	nt
Cc1ccc2c(COC(=O)c3ccccc3OC(F)F)cc(=O)oc2c1	-20%	0%	nt	14%	5%	26%	nt	16%[46.1 µM]
Cc1cccc(NC(=O)CCc2nnc3ccc(N4CCC(C)CC4)nn23)n1	-3%	-6%	nt	9%	nt	31%[activator]	nt	nt
CCOC(=O)c1cnn(CCOC(=O)C2CC2)c1NC(=O)C1CC1	-16%	-17%	6.2%	-9%	33%[14.3 µM]	-6%	4%	?
O=C(CNS(=O)(=O)c1ccccc1)Nc1cccc([N+](=O)[O-])c1	9%	-2%	nt	4%	nt	4%	nt	nt
COc1ccc(Cl)cc1S(=O)(=O)N1CCC(c2ccncc2)CC1	nt	nt	-0.9%	nt	3%[46.1 µM]	-5%	7%	nt
O=C(N/N=C/c1ccncc1)c1cc([N+](=O)[O-])cc([N+](=O)[O-])c1	-8%	16%	-2.9%	20%	1%	-13%	-9%	0%
CC(=O)c1ccc(N2C(=O)N(Cc3ccc(F)cc3)c3ccccc3S2(=O)=O)cc1	nt	nt	-1.8%	nt	-3%[46.1 µM]	20%	20%	nt
N#Cc1cc([N+](=O)[O-])c(-n2nnc3ccccc32)c([N+](=O)[O-])c1	-14%	-1%	3.9%	4%	0%	7%	4%	?
O=C(Nc1nc2ccccc2n1CCN1CCCC1)C1CCCCC1	-1%	2%	-2.8%	-8%	2%	-16%	2%	?
COc1cc2nc(CN(C)Cc3ccc(C(C)(C)C)cc3)[nH]c(=O)c2cc1OC	-6%	1%	nt	5%	nt	-4%	nt	nt
COc1ccc(C(=O)Nc2c(N)nc(SCC(=O)Nc3ccc(C(C)=O)cc3)[nH]c2=O)cc1	2%	6%	nt	14%	-5%	-2%	nt	3%
CCN1CCCC1CNS(=O)(=O)c1cccc(C(F)(F)F)c1 (stereo not given)	-12%	-4%	nt	0%	-25%	1%	nt	-3%[46.1 µM]
COc1cc(=O)n(C)c2cc(N(C)C)ccc12	17%	1%	-8.5%	-23%	-3%	26%	-7%	6%[46.1 µM]
CC1CCCC(C)N1C(=C(Cl)Cl)C(=C1SCCS1)[N+](=O)[O-] (stereo not given)	6%	-7%	nt	nt	-5%	59%[activator]	nt	?
COc1cc2c(cc1OC)C1Cc3ccc(OC)c(OC)c3C[N+]1([O-])CC2 (stereo not given)	-19%	1%	nt	0%	nt	-18%	nt	nt
O=C(/C=C/c1ccc(F)cc1)NC(=S)N1CCOCC1	-4%	0%	nt	0%	-2%	75%[activator]	nt	14%[46.1 µM]
Cc1cc(O)c(NC(=O)c2ccco2)cc1C	?	-26%	-0.8%	-31%	19%	59%[activator]	-3%	17%
Cc1cc(O)c(CN(C)C)c2c1C(=O)/C(=C/c1ccco1)O2	1%	0%	nt	8%	nt	-15%	nt	nt
CC1Oc2ccccc2C=C1/C=N/NC(=O)c1ccncc1 (stereo not given)	1%	0%	nt	-1%	-14%	-13%	nt	?
Cc1cn2c(=O)c(S(=O)(=O)NCCc3ccccc3)c(C)nc2s1	nt	nt	-4.8%	nt	-2%[46.1 µM]	6%	-19%	nt
C=CCN(C(=O)c1csnn1)C(C(=O)NC1CCCCC1)c1ccccc1F (stereo not given)	7%	6%	nt	-9%	16%[46.1 µM]	3%	nt	-14%[46.1 µM]
O=C(CCc1ccc(CCC(=O)c2cccs2)s1)c1cccs1	-15%	2%	-0.1%	-6%	?	54%[activator]	-18%	11%
CCOc1ccc(C(=O)N2CCN(Cc3cc(=O)n4nc(-c5ccccc5Cl)sc4n3)CC2)cc1	nt	nt	2.0%	nt	-7%[46.1 µM]	0%	-11%	nt
O=S(=O)(c1ccccc1)N(CC(O)COc1ccccc1)c1ccccc1 (stereo not given)	18%	0%	nt	-5%	?	-13%	nt	?
C[C@@H](NC(=O)c1nc[nH]c1C(=O)N[C@@H](Cc1ccccc1)C(=O)OC(C)(C)C)c1ccccc1	0%	0%	nt	?	nt	?	nt	nt
CCc1ccccc1NC(=O)c1ccc(-c2csc(C)n2)cc1	-14%	-4%	nt	4%	-10%[46.1 µM]	22%	nt	?
CN1N=C(C(C)(C)C)CC1=O	22%	-2%	nt	1%	-6%	-9%	nt	22µM*
CCOC(=O)/C(C#N)=C/c1cc2ccc(C)cc2nc1Cl	-7%	-9%	-5.1%	2%	21%	1%	14%	?
Cc1ccc(S(=O)(=O)N2CCOCC2)cc1NC(=O)COC(=O)c1ccccc1OCc1c(C)noc1C	9%	5%	-3.1%	-11%	-1%	0%	?	-5%
Cc1ccc(CNC(=O)CCc2c(C)nc3nc(C)nn3c2C)cc1	nt	nt	3.8%	nt	0%[46.1 µM]	17%	-5%	9%[46.1 µM]
CC1(C2CC2)NC(=O)N(CC(=O)N2CCN(c3ccc(F)cc3)CC2)C1=O (stereo not given)	-3%	-2%	nt	nt	1%	-16%	nt	0%
N#CSC(c1ccccc1)c1nc2ccccc2[nH]c1=O (stereo not given)	-7%	2%	nt	3%	?	18%	nt	?
COc1ccc(-c2nnnn2-c2ccc(F)cc2F)cc1	-6%	1%	nt	-5%	2%[46.1 µM]	-10%	nt	-2%[46.1 µM]
COc1ccc(Nc2nnc(SC(C)C(=O)NC3CC3)s2)cc1 (stereo not given)	-5%	4%	nt	nt	?	15%	nt	-7%[46.1 µM]
CSc1nc2c(c(=O)n1-c1ccccc1)SCC2	-12%	-2%	3.5%	-6%	?	-11%	-9%	13%
Cc1cc(C(=O)N/N=C/c2ccccc2[N+](=O)[O-])c(C)o1	-7%	-1%	nt	0%	nt	56%[activator]	nt	nt
O=C(Nc1ccccc1)c1ccc(CN2CCc3ccccc3C2)cc1	-11%	5%	nt	nt	-3%[46.1 µM]	-1%	nt	?
COc1ccccc1N(CC(=O)N1CCCCCC1)S(C)(=O)=O	-4%	nt	2.4%	6%	15%	nt	3%	11%
CCOC(=O)c1cnc2ccc(C(=O)OC)cc2c1Nc1ccc(N2CCOCC2)cc1	nt	nt	-7.1%	nt	-2%[46.1 µM]	?	?	?
COc1ccc2c(c1OC)C(=O)N(c1ccccn1)C2	-10%	-9%	2.8%	-34%	?	42%[activator]	-5%	?
Cc1nn(CC(=O)Nc2ccc3c(c2)nc2n3CCN(C3CCCCC3)C2)c(=O)c2ccccc12	-8%	0%	nt	8%	?	-30%	nt	?
CCN(CC)c1ccc(C(=O)N2CCN(Cc3ccccc3)CC2)cc1	-18%	19%	-3.1%	?	?	-11%	-1%	?
N#Cc1ccccc1Oc1ccc(S(=O)(=O)N2CCCCC2)cn1	-9%	-4%	nt	nt	-5%	-2%	nt	6%
CN(C(=O)CSc1nc(-c2ccccc2)cn1N)C(c1ccccc1)c1ccccc1	0%	-12%	-6.6%	18%	-15%	7%	-18%	?
O=C(CCc1ccccc1)NNC(=O)c1ccc(Br)cc1	3%	0%	nt	-8%	12%[46.1 µM]	-1%	nt	8%[46.1 µM]
Nc1ccc(S(=O)(=O)NCC(=O)OC2CCOC2=O)cc1[N+](=O)[O-] (stereo not given)	7%	-6%	nt	nt	5%	3%	nt	28%
Cc1cccc(-c2nc(CN3CCCC(C(=O)NCCc4ccc(Cl)cc4)C3)c(C)o2)c1 (stereo not given)	nt	nt	-0.4%	nt	?	-16%	26%	?
COc1cc(C2N(c3ccccn3)C(=O)C3CCCN32)cc(OC)c1OC (stereo not given)	5%	-2%	0.3%	2%	9%	5%	-1%	4%
COc1ccc(CNC(=O)COc2ccc(S(=O)(=O)N3CCCCC3)cc2Cl)cc1	2%	3%	nt	-7%	13µM*	-18%	nt	?
